From PubChem BioAssay
CDC25B-CDK2 inh: primary biochemical HTRF screen for blockers of M-phase inducer phosphatase 2 binding to CDK2/cyclin A. AID 1259370, 2018. P30305+P24941. 94,000 compounds, 0.72% hits. z-score (no concentration beside the values). HTRF CDC25B-CDK2/CyclinA binding, anti-His/anti-Flag; stronger effect = higher value;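 note: score is relative to mean and SD of negative controls; strong numbers were not always called active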
HIV TAR-Tat: TAR RNA-Tat peptide displacers, HIV-1, primary screen, biochemical, FRET, FAM/TAMRA-labeled Tat; HIV-1 TAR RNA, Tat peptide displacement FRET; stronger effect = higher value; z-score (test concentration not listed); 100,000 compounds, 0.6% hits;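 note: score is relative to mean and SD of negative controls; some compounds called inactive have numbers as strong as hits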
The depositor's hits bear a star; · = not tested or not shown; & = joins results of further samples.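 Rule for the calls: active = z-score from 3 up in half or more of its runs; inactive = the rest.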

SMILES	CDC25B-CDK2 inh	HIV TAR-Tat
Cc1cc(C)c(S(=O)(=O)N2CCN(CCO)CC2)c(C)c1	0.66	0.02
COCCCNC(=S)NNC(=O)CC#N	-2.1	·
O=C(Cn1cc(C(=O)c2ccco2)c2ccccc21)Nc1ccc(F)cc1	-0.39	-0.85
C=C(C)c1cccc(C(C)(C)NC(=O)NCc2ccc(Cl)cc2)c1	0.08	-0.64
Cn1nc(C(=O)Nc2cc(-c3cccc(Cl)c3)no2)c2c1-c1ccccc1OC2	-1	1.9
Oc1ccc(Cl)cc1C1=Nc2ccccc2N=C(c2ccco2)C1	-1.3	1.6
CC(C)(C)c1ccc(C(=O)N2CCOCC2)s1	-0.44	·
CCCCCn1cc2c(c1-c1ccc(Cl)cc1)c(=O)n(C)c(=O)n2C	-1	1.6
NC(=O)C1(N2CCCCC2)CCN(C2CC(=O)N(c3ccccc3)C2=O)CC1 (stereo not drawn)	-0.8	0.05
CCCc1cc(=O)[nH]c2c1c(C)nn2C	·	1.9
O=C1c2ccccc2C(=O)C1(c1ccccc1)N1CCN(CCO)CC1	-2	1.5
O=S(=O)(NCC1COc2ccccc2O1)c1cccs1 (stereo not drawn)	-0.3	·
COc1ccc(N2CCN(c3nc(-c4cccc(OC)c4OC)no3)CC2)cc1	·	0.99
CC(C)(C)c1ccc(S(=O)(=O)N2CCC(CN)CC2)cc1	1.5	0.31
CCOc1ccc(/C(O)=C2\C(=O)C(=O)N(CCN(C)C)C2c2ccc(N(C)C)cc2)c(C)c1 (stereo not drawn)	-2.6	0.41
c1ccc(-c2nnc3sc(-c4ccco4)nn23)cc1	1.5	1.4
CCOC(=O)c1cccc2c1N[C@@H](c1ccc(C(=O)OC)cc1)[C@H]1CC=C[C@@H]21	-0.39	-0.52
COc1cc(/C=c2\sc3nc4cc(C)c(C)cc4n3c2=O)ccc1OCc1ccc(C)cc1	-3	·
CCOC(=O)C1CCCN(c2c(-c3ccc(Cl)cc3)c(=O)c2=O)C1 (stereo not drawn)	·	-0.21
Cn1cc(Br)c(-c2ccc(NC(=O)Nc3ccc(Cl)cc3)cc2)n1	1.3	·

Rewritten as comma-separated lines: entries from further up.
compound,CDC25B-CDK2 inh,HIV TAR-Tat
O=S(=O)(NCC1COc2ccccc2O1)c1cccs1 (stereo not drawn),-0.3,·
COc1ccc(N2CCN(c3nc(-c4cccc(OC)c4OC)no3)CC2)cc1,·,0.99
CC(C)(C)c1ccc(S(=O)(=O)N2CCC(CN)CC2)cc1,1.5,0.31
CCOC(=O)C1CCCN(c2c(-c3ccc(Cl)cc3)c(=O)c2=O)C1 (stereo not drawn),·,-0.21
COc1cc(/C=c2\sc3nc4cc(C)c(C)cc4n3c2=O)ccc1OCc1ccc(C)cc1,-3,·
Cn1cc(Br)c(-c2ccc(NC(=O)Nc3ccc(Cl)cc3)cc2)n1,1.3,·
CCOc1ccc(/C(O)=C2\C(=O)C(=O)N(CCN(C)C)C2c2ccc(N(C)C)cc2)c(C)c1 (stereo not drawn),-2.6,0.41

(list continues)
SMILES	CDC25B-CDK2 inh	HIV TAR-Tat
O=C(Nc1nnc(SC/C=C/c2ccccc2)s1)c1csnn1	-0.26	-0.55
Cc1cc(C)c(C#N)c(SCc2ccc(Br)cc2)n1	-2.2	0.33
Cc1sc2nc(-c3ccco3)oc(=O)c2c1C	-0.7	-2.7
O=C1CCCc2nc(N3CCCCC3)sc21	-1.6	0.4
O=C(O)C1=CC(c2ccc3c(c2)OCO3)n2nnnc2N1 (stereo not drawn)	·	0.81
CCN(CC)C(=O)C1Sc2nnc(C)n2NC1c1ccc(Cl)cc1 (stereo not drawn)	0.96	2
CCC12CN3CC(CC)(CN(C1)C3c1ccccc1C)C2O (stereo not drawn)	-0.19	0.08
Cc1cccc(N2CCN(c3c4c(nc5nncn35)CCC4)CC2)c1C	-2.4	-0.84
CC(=O)N1N=C(c2ccc(C)o2)OC1COc1ccc(Cl)cc1C (stereo not drawn)	·	0.33
CC(CNS(=O)(=O)c1ccc(CN2C(=O)c3cccnc3C2=O)s1)c1ccccc1 (stereo not drawn)	·	-1.8

3 compounds already listed, ordered by molecular weight, low to high:
SMILES	CDC25B-CDK2 inh	HIV TAR-Tat
Cc1cc(C)c(C#N)c(SCc2ccc(Br)cc2)n1	-2.2	0.33
Cc1cccc(N2CCN(c3c4c(nc5nncn35)CCC4)CC2)c1C	-2.4	-0.84
CC(CNS(=O)(=O)c1ccc(CN2C(=O)c3cccnc3C2=O)s1)c1ccccc1 (stereo not drawn)	·	-1.8

Next part
SMILES	CDC25B-CDK2 inh	HIV TAR-Tat
CC1CCCN(c2cc(NCc3ccco3)c3c4c(onc24)-c2ccccc2C3=O)C1 (stereo not drawn)	-1.5	-4.4
Cn1c(SCc2cc(=O)n3[nH]c(-c4ccccc4)nc3n2)nnc1-c1ccccc1	·	2.1
CC1(C)Cc2c(sc3nc(SCc4ccccc4Cl)nc(N)c23)CO1	-2.6	0.06
CCOC1=NC(C(F)(F)F)(C(F)(F)F)N=C(N2CCOCC2)O1	2.1	·
Cc1c(OC(=O)c2ccco2)ccc2c3c(c(=O)oc12)CCC3	-0.9	·
C#CCOC(=O)Nc1cnc(OCC)c(C(F)(F)F)c1	6.1	·
Cc1ccc2nc(-c3cc(NC(=O)COc4ccccc4)ccc3OC(=O)COc3ccccc3)oc2c1	-4.8	·
O=C(NCCN1CCOCC1)c1ccc(N2CCOc3ccccc32)s1	·	0.27
CCOc1cc(C2C3=C(CC(c4ccc(OC)cc4)CC3=O)Nc3nnnn32)ccc1O (stereo not drawn)	·	-0.35
CCOC(=O)C(CC)n1nnc2sc(-c3ccccc3)cc2c1=O (stereo not drawn)	-2.2	0.34
COc1ccc(Br)cc1C1CC(=O)Nc2c1c(=O)nc(SCc1ccccc1)n2C (stereo not drawn)	-0.88	0.49
COc1ccccc1/C=C/c1nc(C#N)c(NC(C)c2ccccc2)o1 (stereo not drawn)	-0.31	0.13
NC(=O)CN1C(=O)CSc2ccc(C(=O)N3CCCC3)cc21	·	0.89
CCOc1ccccc1C1C(C(=O)OC2CCCCC2)=C(C)NC2=C1C(=O)CCC2 (stereo not drawn)	-2.9	1.8
COc1ccc(C2CC(=O)C3=C(C2)NC(C)=C(C(=O)OC2CCCC2)C3c2ccccc2)cc1 (stereo not drawn)	-2.4	0.31
CC(C)CN1CC(C(=O)O)CC1=O (stereo not drawn)	0.31	-0.98
Cc1cc(Br)ccc1NC(=O)C1Sc2nnc(C)n2NC1c1ccccc1 (stereo not drawn)	-1.3	-1.1
Cc1cccc2c(=O)c(NC(=O)NCCC(C)c3ccco3)c[nH]c12 (stereo not drawn)	-1.9	1.3
CC1=C(c2ccc(F)cc2)S(=O)(=O)N=C1N1CCN(C2CCCCC2)CC1	·	-0.58
CCOC(=O)c1c(C)oc2cc(Br)c(OC(=O)c3ccco3)cc12	-1	·
O=C(CN1c2cccc3cccc(c23)S1(=O)=O)Nc1ccccc1Cl	-0.11	-8.9
Cc1cc(OCc2nc(-c3ccccn3)no2)cc(C)c1Br	-0.39	-0.41
c1ccc2c(c1)nc1n2CN(CCCN2CCOCC2)CN1CC1CCCO1 (stereo not drawn)	-2.4	2.1
COc1cccc(-c2noc(NCc3ccccc3Cl)n2)c1OC	·	0.47
Cn1nnc2c(NCc3ccc(Cl)cc3)ncnc21	·	2
O=C(Cn1c(=O)n(-c2ccc(F)cc2)c(=O)c2sccc21)NCCC1=CCCCC1	-2.6	·
Cc1nn(C)c(C)c1CNC(=O)c1ccc(N2CCOCC2)nc1	-0.55	·
Cc1cccc(CSc2nnc(C)c(=O)[nH]2)c1	-1.9	1.6
O=C(CSCc1nc2cccnc2n1C1CCCCC1)NCc1ccccn1	·	-1.7
CCc1nnc(NS(=O)(=O)c2ccc(N3C(=O)c4ccccc4C3=O)cc2)s1	-1.5	·
NC(=O)c1c(Nc2nc3ccc(F)cc3s2)sc2c1CCCC2	1.7	-3.5
CCN1CCN(c2ncc3c(n2)CCN(Cc2ccc(F)c(F)c2)C3)CC1	·	-0.23
FC(F)(F)c1nnc2sc(-c3ccc(Cl)cc3)nn12	-1.6	9
COc1ccc(OC)c(C2C3=C(CCCC3=O)Nc3nnnn32)c1 (stereo not drawn)	-1.6	·
CCOC(=O)c1cnc(SCc2ccc(Br)cc2F)nc1N	·	0.27
O=C(c1cc(-c2ccc3c(c2)OCO3)on1)N1CCN(c2ccc(F)cc2)CC1	-0.58	·
c1ccc(Cn2cnc3ccccc32)cc1	-1	·
O=C(NCC1CCCO1)c1ccc2c(Cl)c3c(nc2c1)CCC3 (stereo not drawn)	-1.8	·
O=S(=O)(NCC(c1ccco1)N1CCN(c2ccc(F)cc2)CC1)c1cc(F)ccc1F (stereo not drawn)	·	1.1
O=c1nc(/C=C/c2ccc(-c3cccc(F)c3)o2)cc(C(F)(F)F)[nH]1	-1.1	-7.4
COc1cccc(-c2nc3c(c(=O)[nH]2)Cc2cc(Br)ccc2O3)c1	-1.9	2.1
Cc1ccc2ncc(NC(=O)c3ccc(Cl)cc3)c(=O)n2c1	-0.9	-0.7
COc1ccc(-c2nnc3ccccc3c2C(=O)O)cc1	-1.1	0.31
CCOC(=O)c1c(NC(=O)Cn2nc(C)c([N+](=O)[O-])c2C)sc2c1CCC(C)C2 (stereo not drawn)	-1.5	·
CCSc1cc(C(F)(F)F)c(C(=O)N(CC)c2ccc(Cl)cc2)cn1	-0.27	·
O=C(NCc1ccc2c(c1)CCO2)C1=Cc2ccccc2OC1	-0.99	·
Cc1c(C(=O)N(Cc2ccco2)c2ccccn2)oc2ccc(Cl)cc12	-2.9	2.2
CCCCNC(=O)CCC(=O)N1CCCn2nc(C)cc21	-0.57	1
Cc1nc(-n2cccc2)sc1C(=O)Nc1c(F)cc(F)cc1Br	-1.3	1.2
COC(=O)CSc1nc(C)cc(C)n1	-0.29	0.56

Exported in markdown: 5 of the compounds above
| mol | CDC25B-CDK2 inh | HIV TAR-Tat |
| --- | --- | --- |
| O=C(NCc1ccc2c(c1)CCO2)C1=Cc2ccccc2OC1 | -0.99 | · |
| Cc1c(C(=O)N(Cc2ccco2)c2ccccn2)oc2ccc(Cl)cc12 | -2.9 | 2.2 |
| CCCCNC(=O)CCC(=O)N1CCCn2nc(C)cc21 | -0.57 | 1 |
| Cc1nc(-n2cccc2)sc1C(=O)Nc1c(F)cc(F)cc1Br | -1.3 | 1.2 |
| COC(=O)CSc1nc(C)cc(C)n1 | -0.29 | 0.56 |

Next records follow:
SMILES	CDC25B-CDK2 inh	HIV TAR-Tat
CCOC(=O)C(NC(C)=O)(Nc1cccc(C)n1)C(F)(F)F (stereo not drawn)	-2.3	·
O=C(NCCCN1CCCC1=O)c1cccn1-c1nnc(N2CCN(C3CCCCC3)CC2)s1	-0.59	-0.61
CCC(CO)NS(=O)(=O)c1cc(-c2nnc3c4ccccc4c(C)nn23)ccc1C (stereo not drawn)	-1.6	2.3
COc1ccc(OCc2nn3c(Cc4ccccc4)nnc3s2)cc1	-1.9	0.58
CCN1C(=O)C=CC1=O	-0.62	2
Cc1ccc2occ(CC(=O)N(Cc3ccc(N(C)C)cc3)C3CCS(=O)(=O)C3)c2c1 (stereo not drawn)	0.15	1.7
N#C/C(=C\c1sccc1Oc1ccccc1)S(=O)(=O)c1ccc(C(F)(F)F)cn1	-1.2	·
CC(=O)Nc1cccc(OCCCNC(=O)C2CCCCC2)c1	-1.2	·
Fc1ccc(-c2nnc3sc(Cc4ccc(Cl)cc4)nn23)cc1	-1.1	1.5
COc1ccc(N2CCCS2(=O)=O)cc1NS(=O)(=O)c1cccs1	·	0.41
Cc1ccc(S(=O)(=O)c2ccc(C)c(S(=O)(=O)N3CCC(C)CC3)c2)cc1S(=O)(=O)N1CCC(C)CC1	-1.2	·
Clc1ccccc1-c1noc(-c2cccs2)n1	-0.24	1.7
CCOC(=O)C1=C(C)NC2=C(C(=O)C(C(=O)OCC)C(c3ccccc3OC)C2)C1c1ccccc1 (stereo not drawn)	-0.68	·
O=S(=O)(c1cccc(-c2cn3cc(Cl)ccc3n2)c1)N1CCCC1	-1.3	1.5
CN(Cc1nc(-c2ccccc2)no1)S(=O)(=O)c1ccc(Br)cc1	-1	1.5
CS(=O)(=O)c1ccccc1-c1nnc(NC(=O)c2ccc3c(c2)OCCO3)o1	·	0.46
CC1(C)CC(=O)C2=C(C1)Nc1[nH]c(=O)[nH]c(=O)c1C2c1ccc(Br)cc1 (stereo not drawn)	0.39	1.9&0.02
Cn1cc(C(=O)NCCC2=CCCCC2)c2c3ccccc3n(C)c2c1=O	-0.5	·
O=C(CSCc1cnn(-c2ccccc2)c1-n1cccc1)N1CCN(c2ccccc2)CC1	-1.2	1.4
O=C(NCCc1ccsc1)c1nc(CS(=O)(=O)c2ccc(Cl)cc2)no1	·	6.5
CC1CCCC(NC(=O)Cn2c(=O)oc3cc(S(=O)(=O)N4CCCC4)ccc32)C1C (stereo not drawn)	-0.08	0.1
O=S(=O)(c1ccc(Cl)cc1)N1CCN(Cc2ccncc2)CC1	-0.37	0.95
Cc1csc(NC(=O)CSc2c3c(nc4cc(Cl)ccc24)CCCC3)n1	-0.66	0.73
CC1(C)Cc2nc(NCCO)c(C#N)cc2CO1	-0.54	·
CCCN(CC1CC1)c1nc(C)nc(Nc2c(Cl)cc(Cl)cc2Cl)c1Cl	-0.81	·
O=C(Nc1ccc(Oc2cccc3cccnc23)cc1)c1cccs1	1.1	·
NC(=O)Cn1c(S(=O)(=O)Cc2ccccc2)nc2ccccc21	0.44	0.99
O=C(NCCCN1CCCCC1)C1CCCN(c2nnc(N3CCCCC3=O)s2)C1 (stereo not drawn)	·	0.45
Cc1ccc(CSc2nnc(C)c(=O)[nH]2)cc1	-0.89	1.4
CC1(C)CC(=O)C2=C(C1)N1C(=C(C#N)C2c2ccc3c(c2)OCO3)N=C(N)c2ccccc21 (stereo not drawn)	-0.73	-1.5
COc1ccccc1NC(=O)C(C)Sc1ncnc2c1sc1nc3c(cc12)COC(C)(C)C3 (stereo not drawn)	·	1.6
Cc1ccc2c(=O)cc(C(=O)N(Cc3ccc(C(C)C)cc3)C3CCS(=O)(=O)C3)oc2c1C (stereo not drawn)	-1.3	-0.93
CC1CCCC(NC(=O)CCCn2c(=O)c3cccn3c3cccnc32)C1C (stereo not drawn)	·	0.36
